Assay outcomes as filed in PubChem BioAssay.
Bst PK mod – Pyruvate Kinase; partly purified Bacillus stearothermophilus pyruvate kinase, luminescence ATP production; ribose 5-phosphate activator present at AC10; Potency, µM; hit rate 1.2% among 51,000; in the data active means potency below about 11 µM; inconclusive means mostly about 12 µM to 25 µM; inactive means weaker than that;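 the screen sought inhibitors and activators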;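 also: potency is read from the fitted curve at half-maximal effect; scaled between full activation by ribose 5 phosphate and full inhibition by luteolin; about four in five hits inhibit and the cells do not say which; series up to 57 µM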
YjeE inh – qHTS Assay for Inhibitors of YjeE; Potency, µM; hit rate 0.05% among 71,000; purified YjeE, fluorescence polarisation of a bound ADP probe; AID 605, 2007; active = well fitted falling curve; inconclusive = weaker or top-dose-only fall, or a rising curve; inactive = flat or poorly fitted curve;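 also: top concentration of the series not given in the record; excess ADP was the control for the full effect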
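Fluorescence polarization of a BODIPY Texas Red–ADP probe (2 uM) bound to purified YjeE (10 uM) was read after 15 min room-temperature incubation with compounds. Loss of polarization marks inhibitors; ADP serves as titrated control.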
The depositor's hits bear a star; i = inactive; ? = inconclusive; · = no result given. This is a subset; rates above refer to the full screens.

molecule	Bst PK mod	YjeE inh
c1ccc2c(-c3nnc4n3CCCCC4)c[nH]c2c1	>57	i
CC(C)N1C(=S)SC2CS(=O)(=O)C=C21 (stereo not drawn)	>57	i
c1ccc(C(c2nnnn2C2CCCC2)N2CCCCCC2)nc1 (stereo not drawn)	>57	i
CCOc1ccc(NC(=O)COC(=O)c2cccnc2)cc1	>57	i
NS(=O)(=O)c1cc2c(cc1Cl)NC(CSCc1ccccc1)=NS2(=O)=O	>25.6	i
O=C(NCC1CCCO1)c1csc2c1CCCCC2 (stereo not drawn)	>57	i
CCCCn1c(CN2CCN(c3ccc(F)cc3)CC2)nc2c1c(=O)n(C)c(=O)n2C	·	i
CCCCCC(=O)N1CC2(CC)CN(C(=O)CCCCC)CC(CC)(C1)C2=O	>25.6	·
O=c1c2ccccc2nc(-c2ccco2)n1Cc1ccccc1	>57	i
CC(=O)NCC(=O)NC(C(=O)Nc1ccc2c(c1)OCCO2)c1ccccc1 (stereo not drawn)	>57	i
COc1ccc(-n2nnc3c(=O)n(CC(=O)N4CCC(Cc5ccccc5)CC4)cnc32)cc1	·	i
Cc1cc(C)nc(NC2=NCC(=O)N2c2ccccc2)n1	>25.6	·
COc1cc(OC)cc(C2C(C#N)=C(N)Oc3n[nH]c(-c4cccnc4)c32)c1 (stereo not drawn)	>57	i
CCC(C)(C)n1nnnc1C(c1cc(OC)c(OC)c(OC)c1)N1CCN(c2ccccc2)CC1 (stereo not drawn)	>57	i
COc1cc2c(cc1OC)C(C(=O)Nc1cccc(C)n1)C(c1cccnc1)N(C)C2=O (stereo not drawn)	>57	i
O=C(NCc1cccnc1)C1CCCN(S(=O)(=O)c2ccc(Br)cc2)C1 (stereo not drawn)	>57	i
Cc1ccc(OCC(O)Cn2c(NCCc3ccccc3)nc3c2c(=O)[nH]c(=O)n3C)cc1 (stereo not drawn)	>57	i
COc1cc2ccc([C@H](C)NCC#N)cc2cc1OC	·	i
O=S(=O)(NCc1cccnc1)c1ccc(Br)s1	>57	i
CS(=O)(=O)c1ccc2nc(NC(=O)C3CCCCC3)sc2c1	·	i
O=C(CCN1C(=O)C2C3C=CC(C3)C2C1=O)Nc1c(F)cccc1F (stereo not drawn)	>57	i
c1coc(CNC2CCCCCCC2)c1	>57	i
COc1ccc(-c2c3c([nH]c(=S)c2C#N)CCC3)cc1	>11.4	·
O=C(CC1NC2CCCCC2NC1=O)Nc1ccc2c(c1)OCO2 (stereo not drawn)	>57	i
CCOC(=O)C1(CCSC)NC(c2ccco2)C2C(=O)N(CC)C(=O)C21 (stereo not drawn)	>57	i
CC(C)OC(=O)C1C2C=CC3(CN(CC4CCCO4)C(=O)C13)O2 (stereo not drawn)	>57	i
COc1ccc2[nH]c(C(=O)O)c(NS(=O)(=O)c3ccc(Cl)s3)c2c1	>57	i
Cc1[nH]c2ccc(F)cc2c(=O)c1SC(F)(F)C(F)C(F)(F)F (stereo not drawn)	>11.4	·
O=c1cc(Nc2ccc3c(c2)OCO3)[nH]c(=O)n1-c1ccc(Br)cc1	>57	i
OCC(C#CCN1CCCCC1)NCc1ccccc1 (stereo not drawn)	>57	i

Retrieved by structure from above (2):
molecule	Bst PK mod	YjeE inh
COc1ccc2[nH]c(C(=O)O)c(NS(=O)(=O)c3ccc(Cl)s3)c2c1	>57	i
COc1cc(OC)cc(C2C(C#N)=C(N)Oc3n[nH]c(-c4cccnc4)c32)c1 (stereo not drawn)	>57	i

Continuation:
molecule	Bst PK mod	YjeE inh
COc1ccc(S(=O)(=O)Nc2ccccc2C(=O)NCc2ccco2)cc1	>57	i
COc1ccc(OC)c(Nc2ncnc3c2cnn3-c2cccc(C)c2)c1	>57	i
CC(=O)N(Cc1cccs1)C1CCOC(C)(C)C1 (stereo not drawn)	>57	i
COc1ccccc1N1CCN(C(=O)Cn2nc(C(F)(F)F)c3c2CCC3)CC1	>57	i
Cn1c(=O)c(CCc2ccccc2)nc2cnc(Nc3ccccc3)nc21	·	i
Nc1nc(SCc2ccc(Cl)cc2)ns1	·	i
Clc1ccccc1CN(Cc1ccccc1)c1ncnc2nc[nH]c12	>25.6	·
CC(C)[C@H](NC(=O)NC1CCCc2ccccc21)C(=O)O (stereo partly drawn)	i	i
Cc1cc(C(=O)Nc2nnc(C3CCCCC3)s2)no1	>57	i
COCCNC(=O)[C@H](C)/C=C(\c1cccnc1)C(NC(=O)OCc1ccccc1)c1ccc(C(=O)OC)cc1 (stereo partly drawn)	·	i
Cc1ccc(OC[C@H](O)[C@H](C)NC(C)C)c2c1CCC2	·	i
CCc1nnc(SCc2ccc(OC(C)C)cc2)n1N	>57	i
CCc1nc(SCC(=O)N2CCN(C(=O)c3ccco3)CC2)c2c3c(sc2n1)CCCC3	>57	i
O=C(Nc1cccc(NS(=O)(=O)c2ccc(S(=O)(=O)NC3CC3)cc2)c1)c1ccccn1	>57	i
Cc1cc(NC(=O)CSc2ccc3nnc(-c4cccc(F)c4)n3n2)no1	>57	i
COc1ccccc1C1/C(=C(\O)c2c(C)nc3c(C)cccn23)C(=O)C(=O)N1CCCN(C)C (stereo not drawn)	>57	i
CCn1nnnc1SCC(=O)c1ccc(NC(C)=O)cc1	>57	i
CCOC(=O)C(C)Oc1ccc(=O)n(-c2ccccc2)n1 (stereo not drawn)	>57	i
C[C@@]12C=CC(=O)C=C1CC[C@@H]1C2=CC[C@]2(C)[C@@H]1CC[C@H]2C(=O)CN1CCN(c2cc(N3CCCC3)nc(N3CCCC3)n2)CC1	·	?
O=C(CSc1nc(Nc2ccccc2)nc(N2CCOCC2)n1)N1CCc2ccccc21	>57	i
Cn1c(=N)c(S(=O)(=O)c2ccc(Cl)cc2)cc2c(=O)n3ccccc3nc21	>57	i
COc1cc(NC(=O)c2nnn(Cc3ccc(SC)cc3)c2N)cc(OC)c1	·	i
CCN(CC)S(=O)(=O)c1cccc(-c2nnc(SCc3ncc(-c4ccccc4)o3)n2C)c1	>57	i
COc1ccccc1NC(=O)CN1C(=O)NC(CC(C)C)C1=O (stereo not drawn)	>57	i
COC(=O)N1[C@H](C)C=C[C@]1(Cc1ccccc1)C(=O)O	·	i
Cc1cc(C)n(C(=O)CNC(=O)C2COc3ccccc3O2)n1 (stereo not drawn)	>11.4	·
O=C(CSc1nnc(-c2cccnc2)n1Cc1ccco1)c1ccc(Br)cc1	·	i
Cc1cccn2cc(CCNC(=O)c3ccc(Br)o3)nc12	·	i
COC1(OC)N=C(N)C2(C#N)C(c3cccc(Oc4ccccc4)c3)C12C#N (stereo not drawn)	>57	i
Cn1c(NC(=O)c2ccc3c(c2)OCO3)cc(=O)n(C)c1=O	·	i

Going on with the list:
molecule	Bst PK mod	YjeE inh
CCCCNS(=O)(=O)c1ccc2nc(SCC(=O)Nc3sccc3C#N)[nH]c2c1	>57	i
COc1ccc(-c2nn(C)c(=O)c3ccccc23)cc1CNC(=O)CN1CCOCC1	>57	i
COc1ccc(N(C(=O)C(C)C)S(=O)(=O)c2ccc3c(c2)n(C)c(=O)n3C)cc1	>57	i
COC(=O)c1ccc(NC(=O)CSc2n[nH]c(-c3ccncc3)n2)cc1	>57	i
CN(C)c1ccc(/C=N/n2ncc3ccccc32)cc1	1.88*	i
O=C(C1CCN(S(=O)(=O)c2cccc3cccnc23)CC1)N1CCN(C2CCCCC2)CC1	·	i
CCC(=O)N[C@@H]1CC(C(C)(C)NC(=O)CC)CC=C1C (stereo partly drawn)	>25.6	·
COc1cc(OC)cc(C(=O)N2CCC(N3CCCCCC3)CC2)c1	>25.6	·
COC(=O)c1ccc(NC2(C#N)C(=O)Nc3ccccc32)cc1 (stereo not drawn)	>57	i
COc1ccc(-n2c3c(cc(C(=O)NC4CCSC4=O)c2=O)C(=O)CC(C)(C)C3)cc1 (stereo not drawn)	·	i
Cc1onc(-c2ccccc2)c1C(=O)Nc1ccc(S(=O)(=O)N2CCCCC2)cc1	·	i
Cc1noc(C)c1C(=O)N1CCC[C@@]2(CCN(C(c3ccccc3)c3ccccc3)C2)C1	·	i
CCOc1ccc(C(=O)NC2CCN(C(=O)NCc3ccccc3)CC2)cc1	>57	i
O=C(c1ccco1)N1CCCN(C(=O)c2ccco2)CC1	>57	i
N[C@@H](Cc1nn[nH]n1)C(=O)O	·	i
CCOC(=O)c1ccc(NCc2ccc3c(c2)OCO3)cc1	>57	i
Cc1cc(C)cc(OCCCCCNCCO)c1	·	i
O=C(O)CSc1nnc(Cn2cnc3ccccc32)n1CCc1ccccc1	>57	i
Cc1ccc2oc(-c3ccc(NC(=O)c4cccnc4)cc3)nc2c1	·	i
CCC(c1nnnn1Cc1ccccc1)N(Cc1ccco1)Cc1cc2cc(OC)ccc2[nH]c1=O (stereo not drawn)	·	i
CCN(CC)S(=O)(=O)c1ccc(Cl)c(C(=O)Nc2nncs2)c1	>57	i
OC(Cn1cncn1)c1ccc(Cl)cc1 (stereo not drawn)	>57	i
O=C(Nn1c(=O)[nH]c2ccsc2c1=O)c1ccccc1	>57	i
COCCN1C(=O)C(CC(=O)Nc2ccc(C(=O)O)cc2)SC1=Nc1ccccc1 (stereo not drawn)	>57	i
CCOc1ccc2[nH]c(=O)c(CN(CCO)C(=O)c3ccc(Br)cc3)cc2c1	>57	i
CN(C)c1nc2c(c(=O)n(C)c(=O)n2C)n1CC(=O)c1cccs1	>57	i
COc1ccc(S(=O)(=O)Nc2cccc(Cl)c2)cc1OC	>57	i
COCCN1C=C(C(=O)OC)C(c2cc(Br)c(OC)c(OC)c2)C(C(=O)OC)=C1	·	i
O=C(COC(=O)c1ccco1)Nc1cccc(Br)c1	>57	i
O=C(Nn1cnnc1)C1Cc2ccccc2CN1S(=O)(=O)c1ccc(F)cc1 (stereo not drawn)	·	i

Some of the entries above in a different format.
CCN(CC)S(=O)(=O)c1ccc(Cl)c(C(=O)Nc2nncs2)c1
  Bst PK mod: >57 | YjeE inh: i

OC(Cn1cncn1)c1ccc(Cl)cc1 (stereo not drawn)
  Bst PK mod: >57 | YjeE inh: i

O=C(Nn1c(=O)[nH]c2ccsc2c1=O)c1ccccc1
  Bst PK mod: >57 | YjeE inh: i

COCCN1C(=O)C(CC(=O)Nc2ccc(C(=O)O)cc2)SC1=Nc1ccccc1 (stereo not drawn)
  Bst PK mod: >57 | YjeE inh: i

(more compounds)
molecule	Bst PK mod	YjeE inh
CCCCn1c(=N)n(CC(O)COc2ccccc2)c2ccccc21 (stereo not drawn)	>57	i
O=C1C(SCCO)=C(SCCO)C(=O)c2ccccc21	·	i
CCN(C(=O)c1c(OC)cccc1OC)c1nnc(-c2cccnc2)s1	>57	i
Cc1ccc(N(CC(=O)Nc2ccc(F)c(Cl)c2)S(=O)(=O)c2c(C)noc2C)cc1	>57	i
CCOC(=O)c1cn(CC)c2ccc(S(=O)(=O)N3CC(C)CC(C)C3)cc2c1=O (stereo not drawn)	>57	i
O=P(O)(CN1CCCCC1)CN1CCCCC1	·	i
O=C(CCN1CCCCC1)NCC1OCCc2ccccc21 (stereo not drawn)	>57	i
COc1ccc(CCn2nnnc2C(C(C)C)N2CCN(c3ncccn3)CC2)cc1OC (stereo not drawn)	>57	i
c1ccc(-c2cc(-c3cc(-c4ccccn4)[nH]n3)n[nH]2)nc1	·	i
CN(Cc1ccco1)c1cc(-c2ccccc2Cl)ncn1	·	i
CCOC(=O)N1CCC(N(CCCOC)C(=O)Nc2cccc(OC)c2)CC1	>57	i
CCOC(=O)N1CCN(C(=O)C2CCN(Cc3nc(-c4ccccc4C)oc3C)CC2)CC1	·	i
COC(=O)[C@H](C)NC(=O)Nc1ccc(OC(F)(F)F)cc1	>57	i
CCOc1ccc(S(=O)(=O)N(C)CCO)cc1-c1nc2c(C(C)(C)C)nn(C)c2c(=O)[nH]1	>25.6	·
CCOC(=O)CSc1nc2ccccc2c(=O)n1C1CCCC1	>57	i
CC(=O)ON1C(C)(C)CC(OC(=O)c2ccccc2)CC1(C)C	>57	i
CCCCOC(=O)C(C#N)c1nc2ccccc2nc1N1CCOCC1 (stereo not drawn)	>57	i
CCN(CC)C(=O)Nc1cnc2ccccc2c1	·	i
COc1ccc(C(=O)C(c2ccccc2)N2CCOCC2)cc1 (stereo not drawn)	>57	i
O=C(c1[nH]o[n+](=O)c1C(=O)c1csc2ccccc12)c1csc2ccccc12	·	i
CN(CC(=O)NCc1ccc(Cl)cc1)S(=O)(=O)c1cccc2nsnc12	>57	i
CCCCn1c(=O)n(CC(=O)Nc2c(CC)cccc2CC)c(=O)c2c1nc(CO)n2CCC	>57	i
CC1CCCN(S(=O)(=O)c2ccc(Br)s2)C1 (stereo not drawn)	>57	i
c1ccc(SCCOCCn2cncn2)cc1	·	i

Printed as active in Bst PK mod (from the list above):
molecule	Bst PK mod	YjeE inh
CN(C)c1ccc(/C=N/n2ncc3ccccc32)cc1	1.88*	i
